From PubChem BioAssay
AID923: qHTS Assay for Allosteric/Competitive Inhibitors of Caspase-1: Spectroscopic Profiling in AFC Spectral Region; AID 923, 2007; hit rate 1.1% among 75,000; compound fluorescence, AFC spectral region (405/520 nm); almost no hit is shown here; Potency, µM (highest dose often 57.5 µM), for inactives: top-dose fluorescence increase, most hits filed as activators; active = well fitted activation curve with a large enough effect;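 also: 0% is about no effect; scaled to a free AFC standard on each plate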
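Compound autofluorescence profiled at 405 nm ex/520 nm em during kinetic caspase 1 run (50 nM enzyme, 5 uM Ac-WEHD-AFC, HEPES pH 7.5, 10 mM DTT). Titration up to 57 uM; baseline from regression intercept, normalized to AFC standard curve.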
An asterisk follows results filed as active. Potency is read from the fitted curve at half-maximal effect.

For COc1cc(N)c(Cl)cc1C(=O)OCCN1CCCCC1 the results were AID923 -1.7%.
Screening CCN(CCCNS(=O)(=O)c1ccc2c(c1)oc(=O)n2C)c1cccc(C)c1 returned AID923 -2.9%.
For Cc1[nH]c(=O)c(C#N)cc1-c1ccc2nccn2c1 the results were AID923 -2.6%.
For CCCCN(Cc1ccccc1)C(=O)C1CCCN(S(=O)(=O)c2cnc[nH]2)C1 (stereo not drawn) the results were AID923 2.0%.
Screening COc1ccc(S(=O)(=O)Nc2ccc(F)c(Cl)c2)cc1OC returned AID923 -1.7%.
For NCCC(O)C(=O)NC1C[C@@H](N)[C@H](O[C@@H]2OC(CN)C(O)C(O)C2O)C(O)[C@H]1O[C@H]1OC(CO)C(O)C(N)C1O (stereo partly drawn) the results were AID923 -1.7%.
For CCOc1cc(C(=O)NCCN2CCOCC2)cc(OCC)c1OCC the results were AID923 0.3%.
`COC(=O)CCCC[C@@H]1SC[C@@H]2NC(=O)N[C@@H]21` gave AID923 -1.2%.
Screening COc1ccc(C(=O)Nc2cc(=O)n(C)c(=O)n2C)cc1OC returned AID923 2.5%.
Screening N#CCCN1CCN(C(=S)c2ccc(-c3cccc(Cl)c3)o2)CC1 returned AID923 -3.6%.

Overlap with the part before: 2 compounds; new compounds follow.
Screening COc1ccc(C(=O)Nc2cc(=O)n(C)c(=O)n2C)cc1OC returned AID923 2.5%.
Screening N#CCCN1CCN(C(=S)c2ccc(-c3cccc(Cl)c3)o2)CC1 returned AID923 -3.6%.
COC(=O)CC1C(C)(C)C(=O)C2CC3C4=CC(=O)OC(c5ccoc5)[C@]4(C)CCC3[C@@]1(C)C2=O (stereo partly drawn) was read as AID923 -0.8%.
`C=C[C@](C)(O)CCC1C(=C)CCC2[C@@](C)(CO)CCC[C@@]12C` (stereo partly drawn) gave AID923 -2.6%.
`O=C(CSc1nccc2ccccc12)N1CCN(c2ccccn2)CC1` gave AID923 0.8%.
For CC(=O)N[C@@H](Cc1c[nH]c2ccccc12)C(=O)O the results were AID923 -3.1%.
`CC(=O)OC1CC[C@@]2(C)C3CC(=O)[C@]4(C)C(C(C)=O)=CCC4C3CC[C@H]2C1` (stereo partly drawn) gave AID923 -2.8%.
COc1ccc(-n2c(SCC(=O)Nc3nccs3)nc3c(c2=O)SC(C)C3)cc1 (stereo not drawn) was read as AID923 -4.1%.
`CCC1=C2CC[C@H]3C(=O)NC(=O)[C@H]3[C@H]2[C@@]2(C)C(=NCCc3c[nH]c4ccccc34)OC(=O)N2C1=O` gave AID923 -0.5%.
Screening COc1ccc2ccc(=O)oc2c1CC=C(C)C returned AID923 -0.4%.
For COC(=O)C1OC(=O)C2OC23[C@]2(C)C(OC(C)=O)CC4C(C)(C)C(=O)CC[C@]4(C)C2CC[C@@]13C (stereo partly drawn) the results were AID923 -0.8%.
Screening Clc1ccc(-c2noc(COc3ccccc3)n2)cc1 returned AID923 -0.1%.
`OC[C@H]1O[C@@H](O[C@@H]2[C@@H](CO)O[C@](O)(CO)[C@H]2O)[C@H](O)[C@@H](O)[C@H]1O` gave AID923 -0.9%.
For CC1CCCN(C(=O)C(Cc2ccccc2)n2cccc2)C1 (stereo not drawn) the results were AID923 0.0%.
Screening O=c1c(O)c(-c2ccccc2)oc2ccc3occc3c12 returned AID923 -3.1%.
CC(C)CCCC(C)C1CCC2C3CC=C4CC(=O)CC[C@@]4(C)C3CC[C@@]12C (stereo partly drawn) was read as AID923 -3.8%.
Screening CC(CCc1ccco1)NC(=O)Cn1nc(Cc2ccncc2)c2ccccc2c1=O (stereo not drawn) returned AID923 -0.9%.
COc1ccc2cc1Oc1ccc(cc1)CC1c3c(cc4c(c3Oc3cc5c(cc3OC)CCN(C)C5C2)OCO4)CCN1C (stereo not drawn) was read as AID923 1.7%.
For C=C(C)C1CC[C@]2(CO)CC[C@@]3(C)[C@H](CCC4[C@@]5(C)CCC(O)C(C)(C)C5CC[C@@]43C)C12 (stereo partly drawn) the results were AID923 -4.4%.
COc1cccc(/C=C/C(=O)O)c1C(C)C was read as AID923 2.4%.
Screening Cc1ccc(CSC2=NCCN2C(=O)c2ccco2)cc1 returned AID923 1.0%.
For Cc1ccc(-c2nc(C3CCCN(S(=O)(=O)c4ccc(C)cc4)C3)no2)cc1 (stereo not drawn) the results were AID923 0.0%.

Fetched by structure from above:
For CC1CCCN(C(=O)C(Cc2ccccc2)n2cccc2)C1 (stereo not drawn) the results were AID923 0.0%.
For C=C(C)C1CC[C@]2(CO)CC[C@@]3(C)[C@H](CCC4[C@@]5(C)CCC(O)C(C)(C)C5CC[C@@]43C)C12 (stereo partly drawn) the results were AID923 -4.4%.
COc1ccc2cc1Oc1ccc(cc1)CC1c3c(cc4c(c3Oc3cc5c(cc3OC)CCN(C)C5C2)OCO4)CCN1C (stereo not drawn) was read as AID923 1.7%.
`OC[C@H]1O[C@@H](O[C@@H]2[C@@H](CO)O[C@](O)(CO)[C@H]2O)[C@H](O)[C@@H](O)[C@H]1O` gave AID923 -0.9%.
Screening CC(CCc1ccco1)NC(=O)Cn1nc(Cc2ccncc2)c2ccccc2c1=O (stereo not drawn) returned AID923 -0.9%.

Further structures.
Screening c1ccc(-c2ccc(CN3C[C@@H]4C(c5ccccc5)C5(c6ccccc6)CC4(C5)[C@H]3c3ccccc3)cc2)cc1 (stereo partly drawn) returned AID923 -2.4%.
CCOC(=O)c1c(NC(=O)c2cccs2)sc(C)c1CC was read as AID923 18%.
For COc1cc(OC)c(OC)cc1CNc1cc(C)ccc1OC the results were AID923 -0.9%.
For Cc1c(C#N)c2ccccc2n1CCOc1ccccc1F the results were AID923 -0.7%.
`Cc1cc(=O)oc2cc(O)c(O)cc12` gave AID923 -4.9%.
Screening CCC1=C2CC[C@H]3C(=O)N(CC)C(=O)[C@H]3[C@H]2[C@@]2(Cc3ccccc3)C(=O)N(CC3CC3)C(=O)N2C1=O returned AID923 3.0%.
For Clc1ccc(C(c2ccccc2Cl)C(Cl)Cl)cc1 (stereo not drawn) the results were AID923 2.2%.
NC(=O)CSc1nc2ccccc2n1-c1ccccc1 was read as AID923 -1.3%.
Screening CCN(C1CCCCC1)S(=O)(=O)c1ccc(S(=O)(=O)N2CCN(CCC#N)CC2)cc1 returned AID923 0.8%.
`CC1OC(OCC2OC(Oc3c(-c4ccc(O)c(O)c4)oc4cc(O)cc(O)c4c3=O)C(O)C(O)C2O)C(O)C(O)C1O` (stereo not drawn) gave AID923 -0.2%.

No new results follow: entries from further up.
For Clc1ccc(C(c2ccccc2Cl)C(Cl)Cl)cc1 (stereo not drawn) the results were AID923 2.2%.
NC(=O)CSc1nc2ccccc2n1-c1ccccc1 was read as AID923 -1.3%.

Remaining list, next part.
`O=[N+]([O-])c1cccc2c[nH]nc12` gave AID923 3.3%.
`Cc1oc(-c2ccccc2F)nc1CS(=O)(=O)CC(=O)NCCN(C)C1CCCCC1` gave AID923 5.1%.
Screening COC(=O)[C@@H]1C[C@@]2(O)[C@H](O)[C@H](O)[C@H](O)C[C@H]2N1Cc1ccccc1OS(=O)(=O)c1ccc(C)cc1 returned AID923 1.7%.
`CNCc1ccccc1` gave AID923 -1.6%.
`CC(C)CC(=O)N1CCN(Cc2cccc(F)c2)CC1` gave AID923 0.7%.
`COc1ccccc1NC(NC(=O)c1ccco1)C(=O)c1ccccc1` (stereo not drawn) gave AID923 -2.1%.
`CCCC[C@@H]1C[C@H]1C(NC(=O)c1cccs1)c1ccc(-c2ccccc2)cc1` (stereo partly drawn) gave AID923 1.4%.
Cc1ccc(S(=O)(=O)c2nc(S(C)(=O)=O)sc2N(C)C)cc1 was read as AID923 1.3%.
Screening C/C(=N\O)c1ccc(N2C(=O)C3CC=C(Cl)CC3C2=O)cc1 (stereo not drawn) returned AID923 0.4%.
COC(=O)c1cccc(C23CC4(C2)[C@H](CN(Cc2ccc(C(F)(F)F)cc2)[C@@H]4c2ccccc2)C3c2ccc(C(F)(F)F)cc2)c1 (stereo partly drawn) was read as AID923 -1.0%.
Screening Cc1oc(-c2ccccc2F)nc1CS(=O)(=O)CC(=O)N1CCN(Cc2ccccc2)CC1 returned AID923 -3.0%.
For C=CCCCCCCCCCCCC(O)CC(O)COC(C)=O (stereo not drawn) the results were AID923 -3.7%.
For CC(C)CCCC(C)C1CCC2C3CC(=O)[C@H]4CC(O)CC[C@]4(C)C3CC[C@@]12C (stereo partly drawn) the results were AID923 -5.0%.
For COc1cc(NC(C)CCCN)c2ncccc2c1 (stereo not drawn) the results were AID923 3.1%.
O=C(N[C@@H](Cc1ccccc1)C(=O)O)c1ccccc1 was read as AID923 1.2%.
For Nc1nc2[nH]c(=O)[nH]c2c(=O)[nH]1 the results were AID923 -0.4%.
NC(CCC(=O)N[C@@H](CS)C(=O)NCC(=O)O)C(=O)O (stereo partly drawn) was read as AID923 -1.8%.
COc1ccccc1N(C(=O)NCc1ccccc1)C1=NCC(C)S1 (stereo not drawn) was read as AID923 1.5%.
`CCCCCCCCCCCCCc1ccco1` gave AID923 -1.7%.
`CCC(Sc1nc(-c2ccccc2)c(C#N)c(=O)[nH]1)C(=O)Nc1cc(C)on1` (stereo not drawn) gave AID923 -3.3%.
`Cc1ccc(C(=O)[C@@H]2[C@H]3C4COC(O4)C(=O)[C@@H]3[C@H]3C=Cc4ccccc4N32)cc1` (stereo partly drawn) gave AID923 1.1%.
For C=C1C(N)CC2CC1C2(C)C (stereo not drawn) the results were AID923 -2.8%.
O=c1c2cc3ccccc3n2cnn1Cc1ccccc1F was read as AID923 0.6%.
Screening C=CCN1C(=O)C(C)(C)N(C(C)=O)c2ccccc21 returned AID923 -1.0%.
`COC(=O)c1ccc(C(NC(=O)OCc2ccccc2)/C(C)=C/[C@@H](C)C(=O)NCCO)cc1` (stereo partly drawn) gave AID923 -0.3%.
Screening CC(C)c1c(O)ccc2c1CCC1C(C)(C)CCC[C@@]21C (stereo partly drawn) returned AID923 -0.3%.
Screening COc1ccc2c(=O)c(CC(=O)O)coc2c1 returned AID923 0.4%.
CC1CN(Cc2nc3c(c(=O)n(C)c(=O)n3C)n2Cc2cccc(Cl)c2)CC(C)O1 (stereo not drawn) was read as AID923 -3.5%.
Screening CCOC(=O)c1c(CC(C)C)csc1NC=O returned AID923 1.1%.
Screening CC(C)=CCC/C(C)=C/CC/C(C)=C/CC/C(C)=C/CC/C(C)=C/CC/C(C)=C/CC/C(C)=C/CC/C(C)=C/CC/C(C)=C/CO returned AID923 -1.5%.

Structural class: the compounds so far containing two or more sulfur atoms (4)
COc1ccc(-n2c(SCC(=O)Nc3nccs3)nc3c(c2=O)SC(C)C3)cc1 (stereo not drawn) was read as AID923 -4.1%.
CCOC(=O)c1c(NC(=O)c2cccs2)sc(C)c1CC was read as AID923 18%.
Screening CCN(C1CCCCC1)S(=O)(=O)c1ccc(S(=O)(=O)N2CCN(CCC#N)CC2)cc1 returned AID923 0.8%.
Cc1ccc(S(=O)(=O)c2nc(S(C)(=O)=O)sc2N(C)C)cc1 was read as AID923 1.3%.

Further structures follow.
For CCC1=C2CC[C@H]3C(=O)N(c4ccccc4)C(=O)[C@H]3[C@H]2[C@@]2(C)C(=NCC3CC3)OC(=O)N2C1=O the results were AID923 -0.5%.
`CCC(=O)OC1CCC2C3CCc4cc(O)ccc4C3CC[C@]12C` (stereo partly drawn) gave AID923 2.5%.
For O/N=C(\c1ccc(Cl)cc1)c1cc2ccccc2o1 the results were AID923 -2.1%.
COc1ccc(C(=O)c2ccccc2)c(O)c1O was read as AID923 -0.4%.
C=CCn1c(SCC(=O)N2CCN(c3ccc(F)cc3)CC2)nnc1-c1cccs1 was read as AID923 -0.2%.
For COc1ccc(-c2cc(=O)c3c(O)c(OC)c(OC)c(OC)c3o2)cc1 the results were AID923 -0.3%.
For COC(=O)c1cccc(C23CC4(C2)[C@H](CN(Cc2ccc(-c5ccccc5)cc2)[C@@H]4c2ccccc2)C3c2ccc(C(F)(F)F)cc2)c1 (stereo partly drawn) the results were AID923 -1.1%.
O=C(NCc1ccco1)c1ccc(Br)c(S(=O)(=O)N2CCCCC2)c1 was read as AID923 -4.8%.
Cc1ccc(OS(=O)Nc2cccc3nccnc23)cc1 (stereo not drawn) was read as AID923 -0.2%.
COC(=O)[C@@H]1C[C@H]2CC[C@H](O)C[C@H]2N1Cc1ccc(C(F)(F)F)cc1 was read as AID923 -1.6%.
For COc1cc(OC)c2ccc(=O)oc2c1 the results were AID923 0.7%.
For COC1C(O)C(CO)OC1n1c(Br)nc2c(=O)[nH]c(N)nc21 (stereo not drawn) the results were AID923 -1.0%.
Screening COc1c(Cl)ccc(Cl)c1C(=O)O returned AID923 -0.4%.
For O=C(CN(Cc1ccccc1)S(=O)(=O)c1ccccc1)NC1CC1 the results were AID923 2.0%.
For COc1ccc(-c2coc3c(O)c(OC)ccc3c2=O)cc1 the results were AID923 -3.5%.
For COc1cc(O)c(C(=O)/C=C/c2ccc(OC)c(O)c2)c(OC)c1 the results were AID923 -4.8%.
COc1ccc(NC(=O)c2c(-c3ccccc3)noc2C)c(OC)c1 was read as AID923 -0.6%.
`Cc1ncc([N+](=O)[O-])n1CC(C)O` (stereo not drawn) gave AID923 0.6%.
Screening COC(=O)c1ccc(OCC(O)CN(CC(C)C)CC(C)C)cc1 (stereo not drawn) returned AID923 -0.3%.
For O=C(COc1c(F)c(F)c(C(F)(F)F)c(F)c1F)Nc1ccc(N2CCOCC2)c(Cl)c1 the results were AID923 -1.8%.

The list is partial; rates above refer to the full screens.
